GIV-Gai inh: GIV-Galpha-i interaction inhibition | percent of control (FP), % (concentration not given with the values) | Galpha-i3/FITC-GIV peptide fluorescence polarization, 90 min; stronger effect = lower value; scaled: aluminum fluoride 0%, vehicle 100% | P08753 | AID 1224905 | actives 0.42% (n = 210,000);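 active = replicate mean at 85% of control or lower, very high polarization wells dropped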;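 note: wells of about 15 µL received 100 nL stock; the first replicate is given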
Target sequence (P08753 whole entry, looked up): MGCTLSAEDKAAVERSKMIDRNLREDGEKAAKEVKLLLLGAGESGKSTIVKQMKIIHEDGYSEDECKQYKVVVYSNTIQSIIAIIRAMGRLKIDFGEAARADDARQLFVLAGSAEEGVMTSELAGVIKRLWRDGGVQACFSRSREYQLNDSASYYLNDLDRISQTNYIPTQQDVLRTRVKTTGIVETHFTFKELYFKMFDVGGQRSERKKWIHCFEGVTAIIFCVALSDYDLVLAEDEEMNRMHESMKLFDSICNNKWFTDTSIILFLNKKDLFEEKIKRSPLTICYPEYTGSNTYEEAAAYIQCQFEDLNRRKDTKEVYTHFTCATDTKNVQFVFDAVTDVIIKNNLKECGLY
Starred values were filed as active, the others as inactive; & = joins results of further samples. Only part of the results is shown. The share of hits here may be higher or lower than overall.

entry	SMILES	GIV-Gai inh
1	O=C(c1c[nH]c2ccc(S(=O)(=O)N3CCC4(CC3)OCCO4)cc2c1=O)N(CCc1ccccc1)Cc1ccccc1	101
2	Cc1nn(CC(=O)NC(C)(C)C)c(C)c1S(=O)(=O)N1CCCC(C(=O)Nc2ccc(F)cc2)C1 (stereo not given)	98
3	CCOc1ccc(NC(=O)CSc2nc3cc(C(=O)OC)ccc3c(=O)n2Cc2ccc3c(c2)OCO3)cc1	105
4	COc1cccc(C2Nc3c(C)cc(C)cc3[C@H]3OCCC[C@@H]23)c1OC (stereo not given in full)	98
5	COc1ccc(/C=C2\N=C(c3ccc([N+](=O)[O-])cc3Cl)OC2=O)c(OC)c1OC	105
6	CCN1CCCC1CNC(=O)C1CCc2nc(N3CCOCC3)ncc2C1 (stereo not given)	108
7	Brc1ccc(CSc2nnc(-c3ccco3)n2-c2ccccc2)cc1	106
8	CCc1ccc(OCC(=O)Nc2ccc3c(c2)N(C(C)=O)c2ccccc2CC3)cc1	110
9	COc1ccc(N2C(=O)C3C4c5ccccc5C(C=Nc5cccc(Cl)c5)(c5ccccc54)C3C2=O)cc1 (stereo not given)	108
10	Cc1nc(-c2cccc(NC(=O)CN3C(=O)COc4ccccc43)c2)no1	95
11	Cc1sc(C)c(S(=O)(=O)NCc2ccco2)c1-c1cc(C(F)(F)F)on1	105
12	CCOC(=O)C1=C(N)N(c2ccc(S(N)(=O)=O)cc2)C2=C(C(=O)CCC2)C1c1ccc2c(c1)OCO2 (stereo not given)	111
13	Cc1ccc(-n2ccnc2SCc2nc(-c3ccc(Br)cc3)no2)cc1	104
14	Cc1cccc(-c2nc3c4ccccc4n(CC(=O)c4ccc5c(c4)OCO5)c(=O)n3n2)c1	96
15	CCOC(=O)c1nnn(-c2nonc2N)c1CNC(C)C	117
16	CC1(C)c2ssc(=S)c2-c2ccccc2N1C(=O)c1ccc([N+](=O)[O-])cc1	108
17	CCCn1c(SCc2nc(-c3ccc(Cl)cc3)no2)nc2cc3c(cc2c1=O)OCO3	106
18	CC1(C)OC2OC(COC(=O)c3cccc([N+](=O)[O-])c3)C3OC(C)(C)OC3C2O1 (stereo not given)	96
19	O=S1(=O)c2ccccc2S(=O)(=O)N1c1ccc(F)cc1	114
20	CCCCCn1c(SCc2nc(-c3ccc(OCC)cc3)no2)nc2cc3c(cc2c1=O)OCO3	116
21	CCCc1cc(C(=O)N2CCCC2c2cc(C)no2)no1 (stereo not given)	105
22	Cc1nc(-c2cccc(-c3noc(C4CC4)n3)c2)cs1	108
23	O=C(Cn1ncc2c(c1=O)N(C1CC1)C(=O)CS2)Nc1ccc2c(c1)OCCO2	101
24	CCCN(CCC)Cc1nc2c(c(=O)[nH]1)C1(CCCC1)Cc1ccccc1-2	114
25	CCCCOc1ccc(C2CC(=O)C3=C(C2)c2c(ccc4ccccc24)NC3c2ccc3c(c2)OCO3)cc1 (stereo not given)	117
26	O=c1ccn(-c2cccc(F)c2)nc1-c1nc(-c2ccc(Br)cc2)no1	108
27	COc1ccc(Br)cc1C1C(C#N)=C(N)OC2=C1C(=O)CC(C)(C)C2 (stereo not given)	95
28	Cc1ccc2c(c1)c(-c1ccccc1)c(-c1ccccc1)n2CCC#N	122
29	C=CCSc1nc2c(c(=O)[nH]1)C(C(=O)Nc1cc(F)cc(F)c1)CC(=O)N2 (stereo not given)	108
30	CCOC(=O)C1CCC(CNC(=O)N2CCCC2c2cc(C)on2)CC1 (stereo not given)	109
31	O=C1CN(C(=O)c2ccc(Nc3ccccc3)c([N+](=O)[O-])c2)c2ccccc2N1	102
32	Cc1cccc(NC(=O)c2ccc(=O)n(Cc3cccc(F)c3)c2)c1	108
33	O=C(Nc1ccccc1)c1nnc(C2CCN(C(=O)Nc3cccc(Br)c3)CC2)s1	105
34	O=C(Nc1c2c(nn1-c1ccc([N+](=O)[O-])cc1)CS(=O)(=O)C2)c1cc([N+](=O)[O-])ccc1Cl	103
35	O=C(CCc1nc(CSc2nc(-c3ccc(F)cc3)cs2)no1)Nc1nccs1	105
36	CCN(CC)CCNC(=O)CC1CCN(S(=O)(=O)c2ccc(Cl)s2)CC1	105
37	COc1ccc2c(c1)c(=O)c1ccccc1n2CC(=O)Nc1ccc(C(F)(F)F)cc1	110
38	O=C(CN1C(=O)C2(OCCO2)c2ccccc21)NO	105
39	O=C(NCC1CCCO1)C1CCN(c2ccc3cc(S(=O)(=O)N4CCCCC4)ccc3n2)CC1 (stereo not given)	104
40	Cc1ccc(N=c2oc3cc(O)ccc3cc2-c2nc(-c3ccc(Br)cc3)cs2)cc1	120
41	CN1CCN(C(=O)N2c3ccccc3CCc3ccccc32)CC1	110
42	CCCc1cnc2c(c1SCC(=O)O)c(=O)n(C)c(=O)n2C	99
43	COP(=O)(OC)C(Nc1cccc2ccccc12)c1ccc([N+](=O)[O-])cc1 (stereo not given)	117
44	Cc1ccccc1-c1nc(-c2ccncc2)no1	106
45	O=C(O)c1ccc(N2C(=O)/C(=C/c3ccc([N+](=O)[O-])cc3)C=C2c2ccccc2)cc1	119
46	Cc1ccccc1CSc1ncccc1C(=O)O	115
47	Cc1sc(C)c(S(=O)(=O)NCCc2ccccc2)c1-c1cc(C(F)(F)F)on1	109
48	COc1ccccc1N1CCN(C(=O)CSc2nc3ccccc3c(=O)n2CC2COc3ccccc3O2)CC1 (stereo not given)	106&151
49	Cc1nnc(SCC(=O)Nc2sc3c(c2C(=O)OC(C)C)CCCC3)s1	104
50	COc1ccc(NS(=O)(=O)c2ccc3c(c2)-c2oncc2CO3)c(OC)c1	103

(list continues)
entry	SMILES	GIV-Gai inh
51	CCOCCn1cnc2sc(C(=O)N3CCC(C)CC3)c(C)c2c1=O	123
52	Cc1ccccc1NC(=O)c1sc2nc3c(c(-c4ccco4)c2c1N)CCCC3	108
53	O=[N+]([O-])c1ccc(-c2ccc(-c3nc4cc(Cc5ccc6nc(-c7ccccc7)c(-c7ccc(-c8ccc([N+](=O)[O-])cc8)cc7)nc6c5)ccc4nc3-c3ccccc3)cc2)cc1	117
54	CCOC(=O)c1sc2nc(SCC(=O)NCc3ccccc3)n(Cc3cccs3)c(=O)c2c1C	103
55	CCOC(=O)c1sc(NC(=O)CSc2nnc(CNC(=O)c3ccc(OC)cc3)n2C)c(C(=O)OCC)c1C	103
56	CC1=C(C(=O)Nc2ccccc2Cl)C(c2ccc(Cl)cc2)NC(=O)N1 (stereo not given)	100
57	CN1CCN(c2nc(Nc3cccc(C(F)(F)F)c3)nc(N3CCOCC3)n2)CC1	109
58	CN(C)S(=O)(=O)N(CC(=O)NCCCN1CCCC1)c1ccccc1	100
59	Cc1sc(C)c(S(=O)(=O)N2CCN(C3CCCCC3)CC2)c1-c1cc(C(F)(F)F)on1	107
60	CC(C)(C)NS(=O)(=O)c1ccc2c(c1)CCN2	97
61	Cc1c(C(c2ccc(OC(=O)c3ccc(Br)cc3)cc2)c2c(C)n(C)n(-c3ccccc3)c2=O)c(=O)n(-c2ccccc2)n1C	110
62	CC(C)(C)c1csc(-c2csc(S(=O)(=O)NCc3ccc4c(c3)OCO4)c2)n1	103
63	CCc1ccc(-n2c(SCC(=O)NCCc3ccc(OC)c(OC)c3)nc3n[nH]c(C)c3c2=N)cc1	109
64	COc1cc(C2C(C#N)=C(N)Oc3n[nH]c(-c4ccccc4)c32)cc(OC)c1OC(=O)N1CCOCC1 (stereo not given)	108
65	CCOc1cccc2cc(-c3nnc(Nc4cccc(OC)c4)s3)c(=O)oc12	103
66	Cc1ccc(C)c(C(=O)CSc2n[nH]c(-c3ccco3)n2)c1	103
67	Cn1nccc1-c1csc(S(=O)(=O)NC2CCCC2)c1	103
68	COc1cccc(C(O)(C(=O)NNc2ccccc2C)c2cccc(OC)c2)c1	122
69	CCc1nnc2n1CCN(Cc1csc3c1CCCC3)C2	106
70	Cc1ccc(C(=O)N2CCN(Cc3noc4ccccc34)CC2)cc1	103
71	COc1cc(CN2CCCC2c2cc(C)on2)ccc1OCC(C)C (stereo not given)	104
72	Cc1cccc(-c2nccc(Oc3ccc(C(=O)NC4CCCCC4)cc3)n2)c1	103
73	O=C(CSCC(=O)Nc1ccc2nc(SCC(=O)N3CCOCC3)sc2c1)Nc1ccc2ccccc2c1	114
74	O=C(O)CN1C(=O)/C(=C2\SC(=S)N(CCS(=O)(=O)O)C2=O)c2cc(Br)ccc21	101
75	COc1ccc(N2CCN(C(=O)c3cc(S(=O)(=O)N4CCSCC4)ccc3Cl)CC2)cc1	108

In the list so far, 6 contain an NH in an aromatic ring.
entry	SMILES	GIV-Gai inh
1	O=C(c1c[nH]c2ccc(S(=O)(=O)N3CCC4(CC3)OCCO4)cc2c1=O)N(CCc1ccccc1)Cc1ccccc1	101
24	CCCN(CCC)Cc1nc2c(c(=O)[nH]1)C1(CCCC1)Cc1ccccc1-2	114
29	C=CCSc1nc2c(c(=O)[nH]1)C(C(=O)Nc1cc(F)cc(F)c1)CC(=O)N2 (stereo not given)	108
63	CCc1ccc(-n2c(SCC(=O)NCCc3ccc(OC)c(OC)c3)nc3n[nH]c(C)c3c2=N)cc1	109
64	COc1cc(C2C(C#N)=C(N)Oc3n[nH]c(-c4ccccc4)c32)cc(OC)c1OC(=O)N1CCOCC1 (stereo not given)	108
66	Cc1ccc(C)c(C(=O)CSc2n[nH]c(-c3ccco3)n2)c1	103

Next compounds
entry	SMILES	GIV-Gai inh
76	COc1cccc2cc(C(=O)Nc3ccc(Oc4ccc(Cl)cc4)cc3)c(=O)oc12	110
77	Cc1cc(NC(=O)N2CCCC2c2cc(C(C)C)no2)ccc1Br (stereo not given)	105
78	COc1cc(C2C(C#N)=C(N)Oc3n[nH]c(-c4ccc(Br)cc4)c32)cc(OC)c1OC(=O)c1ccco1 (stereo not given)	104
79	Cc1c(C(=O)NCc2nnc(SCC(=O)N3N=C(c4cccs4)CC3c3ccc(F)cc3)n2C)cccc1[N+](=O)[O-] (stereo not given)	110
80	CCn1cnc2sc(C(=O)N3CCC(=O)CC3)c(C)c2c1=O	104
81	Cn1c(=O)c2nc(S(=O)(=O)CCC(=O)Nc3cc(F)ccc3F)n(C)c2n(C)c1=O	107
82	Cc1sc(-c2cc(C(F)(F)F)on2)cc1S(=O)(=O)Nc1ccccc1	102
83	COc1ccc(-c2[nH]nc3c2C2(C(=O)N(CC(=O)O)c4ccccc42)C(C#N)=C(N)O3)cc1 (stereo not given)	103
84	COc1c(Cl)cc(Cl)cc1/C=c1\sc2nc(-c3ccccc3)c(-c3ccccc3)n2c1=O	104
85	Cc1cc(C)c(N=C2c3ccccc3-c3ncccc32)c(C)c1	110
86	CN(C)CCNC(=O)c1ccc2c(c1)nc1n2CCCC1	107
87	O=C1CSc2sc(=S)sc2SC1	99
88	Cc1nn(CC(=O)NC(C)(C)C)c(C)c1S(=O)(=O)N1CCCC(C(=O)N2CCc3ccccc32)C1 (stereo not given)	102
89	CCN(CC)c1ncnc2sc(C(=O)Nc3ccc(Cl)cn3)c(C)c12	105
90	CNC(=O)c1cn(-c2ccc(SCC(=O)NCc3ccc4c(c3)OCO4)nn2)cn1	106
91	CCc1ccccc1N(C)S(=O)(=O)c1ccc2[nH]cc(C(=O)O)c(=O)c2c1	102
92	NC(=O)Cn1cnc2nc(N3CCC(C(=O)NC4CC4)CC3)sc2c1=O	102
93	CN(CCO)c1cc(N2CCN(C3CCCCC3)CC2)c2nonc2c1[N+](=O)[O-]	108
94	CC(=O)N1CCCc2cc(S(=O)(=O)N3CCC(C(=O)N4CCc5ccccc5C4)CC3)ccc21	97
95	N#CC1=CN(c2ccc(Br)cc2)c2ccc(F)cc2S1(=O)=O	102
96	CN1C(=O)c2ccccc2Sc2cc(-c3noc(/C=C/c4ccccc4)n3)ccc21	97
97	C=CCN1CCN(c2nc3cc(C(=O)OC)ccc3c(=O)n2-c2ccc(Cl)cc2)CC1	99
98	Cc1ccc(C(=O)N/C(=C\c2cccs2)C(=O)N2CCOCC2)cc1C	98
99	O=C(NCc1c(-c2ccccc2)nc2n1CCS2)C1CCCCC1	103
100	Cc1nc(-c2cc(S(=O)(=O)Nc3ccc(Br)c(C)c3)c(C)s2)cs1	109

An excerpt from above in order of their number in GIV-Gai inh, largest number first:
entry | Compound | GIV-Gai inh
93 | CN(CCO)c1cc(N2CCN(C3CCCCC3)CC2)c2nonc2c1[N+](=O)[O-] | 108
39 | O=C(NCC1CCCO1)C1CCN(c2ccc3cc(S(=O)(=O)N4CCCCC4)ccc3n2)CC1 (stereo not given) | 104
31 | O=C1CN(C(=O)c2ccc(Nc3ccccc3)c([N+](=O)[O-])c2)c2ccccc2N1 | 102
96 | CN1C(=O)c2ccccc2Sc2cc(-c3noc(/C=C/c4ccccc4)n3)ccc21 | 97

Next section
entry	SMILES	GIV-Gai inh
101	O=C(c1ccco1)N1CCN(c2nc(C3CC3)nc3c2CCC3)CC1	100
102	COc1cc(C2C3=C(c4ccccc4C3=O)N(C(C)=O)c3c2c(=O)n(C)c(=O)n3C)ccc1OC(C)=O (stereo not given)	103
103	CCOC(=O)C1=C(c2ccccc2)S/C(=C2/C(=S)C(C)(C)Nc3cc(OCC)ccc32)S1	113
104	Cc1cccc(-c2ccc(C(=O)Nc3ccc4c(c3)OCCO4)cn2)c1	108
105	Cc1cc(C)cc(NC(=O)/C(=C/c2cccc([N+](=O)[O-])c2)NC(=O)c2ccccc2Br)c1	104
106	CCN(CC)C(=O)c1sc2ncnc(N3CCc4ccccc4C3)c2c1C	102
107	Cc1c(CCNC(=O)CCCc2ccccc2)sc2nc(-c3ccc(F)cc3)nn12	95
108	CCN(CC)c1ncc2c(n1)CCC(C(=O)NCCOC)C2 (stereo not given)	107
109	Cn1c(N2CCC(C(=O)N3CCCCC3)CC2)cc(=O)n(C)c1=O	101
110	CC(O)[C@@]12CCCC[C@@H]1CC1C3CC=C4C[C@@H](O)CC[C@]4(C)C3CC[C@@]12C (stereo not given in full)	103
111	O=C(NCCCN1CCCC1=O)c1ccc(C2Nc3ccccc3S(=O)(=O)N2)cc1 (stereo not given)	102
112	COc1cc(OC)cc(-c2noc(CCn3nc(-c4ccccc4)ccc3=O)n2)c1	112
113	COCCNS(=O)(=O)c1c(C)[nH]c(C)c1-c1nnc(C2CCC2)o1	108
114	COc1ccc(/C=C(/NC(=O)c2ccccc2)C(=O)NC(Cc2c[nH]c3ccccc23)C(=O)O)cc1 (stereo not given)	105
115	CCCNC(=O)CCn1c(N(CC)CC)nc2ccsc2c1=O	101
